Rango release inh: inhibition of RanGTP-driven Rango-importin beta dissociation | hit rate 0.071% among 340,000 | Potency, µM (titrated, usually from 46.1 µM), without a hit: top-dose activity change, negative = inhibition | Biochemical FRET Rango-importin beta, RanGTP-induced dissociation | AID 540253 | O95149+P62826; active means falling FRET ratio curve, often poorly fitted, with flat reads before Ran was added; inconclusive means other falling curves, or compound fluorescence or quenching; inactive means flat or rising ratio curve;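 note: potency is the fitted concentration of half-maximal effect; % of control where 0% means no effect; nearly all actives have a fitted effect of over 45% in size; -100% = wells without RanGTP and RCC1; the record marks most hits as doubtful in a second field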
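Compounds sat 5 min at room temperature with 0.1 uM Rango biosensor plus 0.25 uM importin beta, then FRET pre-read. RanGTP-RCC1 (0.6 uM Ran, 2mM GTP, 0.2 uM RCC1) added for 45 min, and the CFP/YFP post-read measured blocked complex dissociation.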
Rango complex inh: Rango-importin beta binding inhibition; Q14974; Rango CFP/YFP FRET sensor + importin beta, 45 min; Potency, µM (highest dose often 92.2 µM), without a hit: top-dose inhibition of complex formation; hit rate 0.031% among 340,000; AID 540263; active = rising FRET ratio curve, often small or poorly fitted; inconclusive = mostly compound fluorescence or quenching in the first reads; inactive = flat curves in all reads;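 note: potency is the fitted concentration of half-maximal effect; 0% = DMSO wells and 100% = buffer wells lacking importin beta; nearly all actives have a fitted effect of over 15% in size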
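Inhibition scored from the CFP 486 nm/YFP 530 nm FRET ratio 45 min after adding 0.125 microM importin beta to 50 nM Rango biosensor preincubated 5 min with compound (room temperature, PBS with DTT, Tween-20, BSA). No-importin wells as positive control.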
miR-21 FLuc: miR-21 reporter, rising signal; 340,000 tested, under 10 active; Potency, µM (titrated, usually from 38.3 µM), without a hit: at the top dose reporter change, positive = more light; HeLa miR-21 FLuc reporter, luciferase, 48 h; active = well fitted rising curve with a large enough effect; inconclusive = small, poorly fitted or top-dose-only effect; inactive = no such curve, though single readings can be large or run the other way;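 note: % of control where 0% means no effect; miR-21 action dims this reporter so a rising signal means less miR-21 action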
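Using DMEM plus 10% FBS, HeLa miR-21-FLuc cells are incubated with test compounds (final up to about 40uM) for 48 hours; firefly luciferase signal is then imaged following reagent-mediated lysis.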
GLA inh pH 4.5: blocks human alpha-galactosidase A at pH 4.5; activity change, negative = inhibition, % at 105 µM; purified enzyme, 4-MU-alpha-Gal fluorescence, pH 4.5; AID 1467; P06280; 230,000 tested, under 10 active; inconclusive = small, poorly fitted or top-dose-only inhibition, or a rising curve; inactive = flat fitted curve, though single readings scatter; no compound was filed as active;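 note: 0% = full activity with enzyme and -100% = basal without enzyme; dose as in the result columns while the protocol names 77 µM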
Target sequence (P06280 whole entry, looked up): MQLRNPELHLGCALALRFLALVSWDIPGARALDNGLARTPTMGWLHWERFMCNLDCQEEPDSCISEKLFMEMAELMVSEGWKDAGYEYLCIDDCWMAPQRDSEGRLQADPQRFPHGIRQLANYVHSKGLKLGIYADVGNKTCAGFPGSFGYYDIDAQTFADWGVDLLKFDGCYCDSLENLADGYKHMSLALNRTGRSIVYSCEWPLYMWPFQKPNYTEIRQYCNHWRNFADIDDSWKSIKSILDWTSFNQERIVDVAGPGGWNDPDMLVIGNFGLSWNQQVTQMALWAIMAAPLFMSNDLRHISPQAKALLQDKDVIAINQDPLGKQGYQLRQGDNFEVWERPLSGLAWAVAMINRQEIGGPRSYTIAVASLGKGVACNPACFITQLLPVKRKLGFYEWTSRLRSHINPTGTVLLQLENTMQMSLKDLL
* marks the source's active call; other numbers are inactive results; & = joins results of further samples; [ ] = dose if it differs, or a comment. A portion of the library; the hit share may differ from the screen's.

What do the screens show for `O=C(NCc1ccc2c(c1)OCO2)c1nnc(Cc2ccc(Cl)cc2)o1`?
Rango release inh: 1%; Rango complex inh: 0.2%; miR-21 FLuc: -2%; GLA inh pH 4.5: 4

How did COC(=O)C1CCCN1C(=O)COc1ccc(Br)cc1Cl (centres undefined) do in these assays?
Rango release inh: 2%; Rango complex inh: -3.1%; miR-21 FLuc: 2%; GLA inh pH 4.5: -4

How did CCCN(CCC)CCCNC(=O)Cn1cnc2sc(C)c(S(=O)(=O)N3CCOCC3)c2c1=O do in these assays?
Rango release inh: 12%; Rango complex inh: -4.5%; miR-21 FLuc: 6%

What do the screens show for `CNC(=S)NC1CC2CCCC(C1)N2Cc1ccco1` (centres undefined)?
Rango release inh: -11%; Rango complex inh: 2.7%; miR-21 FLuc: -29%; GLA inh pH 4.5: 1

What do the screens show for `CCC1CN(C(=O)Nc2ccc(C)cc2)c2cc(C)ccc2O1` (centres undefined)?
Rango release inh: -12%; Rango complex inh: -1.3%; miR-21 FLuc: -1%; GLA inh pH 4.5: -2

Results for COCCOCCn1c(/C=C/c2ccccc2)nc2ccccc21 ?
Rango release inh: -4%; Rango complex inh: 1.3%; miR-21 FLuc: -30%; GLA inh pH 4.5: -11

What do the screens show for `CN(C)c1ccc(CNC(=O)CCNS(=O)(=O)c2cc(Br)cnc2N)cc1`?
Rango release inh: 3%; Rango complex inh: -1.3%; miR-21 FLuc: 14%

What do the screens show for `CCOC(=O)/C=C/C(=O)OCC(=O)NC(c1ccccc1)c1ccccc1`?
Rango release inh: -5%; Rango complex inh: -1.2%; miR-21 FLuc: 14%; GLA inh pH 4.5: 4

Results for CCOC(=O)C1CCN(C(=O)COC(=O)c2cc([N+](=O)[O-])ccc2N2CCOCC2)CC1 ?
Rango release inh: 8%; Rango complex inh: -2.2%

How did COc1ccc2nc(NC(=O)c3ccc(-n4nc(C)cc4C)cc3)sc2c1 do in these assays?
Rango release inh: -8%; Rango complex inh: 0.4%; miR-21 FLuc: -3%; GLA inh pH 4.5: 26

Results for CC1(C)CC(=O)C2=C(C1)Nc1ccccc1NC2c1cc(Cl)ccc1O (centres undefined) ?
Rango release inh: -10%; Rango complex inh: -4.4%; miR-21 FLuc: 8%

What do the screens show for `COCCCNC(=O)CSc1nc2sc(C(=O)OC)c(C)c2c(=O)n1N`?
Rango release inh: -11%; Rango complex inh: -0.3%; miR-21 FLuc: -5%; GLA inh pH 4.5: -1

How did CCC(CC)C(=O)c1c[nH]c(C(=O)O)c1 do in these assays?
Rango release inh: -7%; Rango complex inh: 2.7%; miR-21 FLuc: -1%; GLA inh pH 4.5: 6

Results for CCC(C)OC(=O)C(C)Oc1ccc(-c2ccccc2)cc1 (centres undefined) ?
Rango release inh: -9%; Rango complex inh: inconclusive; miR-21 FLuc: -11%; GLA inh pH 4.5: 1

How did Cc1cccc(-c2oc3ccccc3c2C#CCCCCO)c1 do in these assays?
Rango release inh: -4%; Rango complex inh: -1.2%; miR-21 FLuc: -9%

How did N#Cc1cccc(Oc2ccc(-c3cnc4ccccc4n3)cc2)c1C#N do in these assays?
Rango release inh: 11%; Rango complex inh: inconclusive; miR-21 FLuc: -2%; GLA inh pH 4.5: 2

Results for Cc1ccc(NC(=O)C(c2ccccc2)N2CCN(CC(=O)NC3CC3)CC2)cc1Cl (centres undefined) ?
Rango release inh: -19%; Rango complex inh: -1.1%

How did CCOC(=O)C1(Cc2cccc(OC)c2)CCN(C/C=C/c2ccccc2)CC1 do in these assays?
Rango release inh: -8%; Rango complex inh: -0.7%; miR-21 FLuc: 12%; GLA inh pH 4.5: -10

Results for COc1ccc2oc(C(=O)N3CCN(S(=O)(=O)c4c(C)c(C)cc(C)c4C)CC3)c(C)c2c1 ?
Rango release inh: -13%; Rango complex inh: -1.4%

Results for Cc1ccccc1OC1CCN(C(=O)c2cc(COc3ccccc3)on2)CC1 ?
Rango release inh: 2%; Rango complex inh: 2.3%; miR-21 FLuc: -12%

Results for Cc1ccc(C)c(C(C)NC(=O)c2ccncc2)c1 (centres undefined) ?
Rango release inh: -12%; Rango complex inh: -5.4%; miR-21 FLuc: 6%

What do the screens show for `Cc1nnc(SCCn2c(N3CCCCC3)nc3c2c(=O)[nH]c(=O)n3C)s1`?
Rango release inh: 36%; Rango complex inh: -4.3%; miR-21 FLuc: -9%; GLA inh pH 4.5: -5

Results for O=C(NCCCNC(=O)c1cccs1)c1cccs1 ?
Rango release inh: 3%; Rango complex inh: 1.9%; miR-21 FLuc: -8%; GLA inh pH 4.5: 1

Results for CCOC(=O)Cn1c(=O)oc2cc(S(=O)(=O)NC(C)c3ccccc3)ccc21 (centres undefined) ?
Rango release inh: 1%; Rango complex inh: -3.9%; miR-21 FLuc: 0%&-1%; GLA inh pH 4.5: -1

How did COCCCNC(=S)NNC(=O)c1cccnc1 do in these assays?
Rango release inh: -10%; Rango complex inh: -1.6%; miR-21 FLuc: -1%; GLA inh pH 4.5: inconclusive

Results for O=C(Nc1cccs1)Nc1ccc(Br)cc1F ?
Rango release inh: 6%; Rango complex inh: -4.0%; miR-21 FLuc: 0%; GLA inh pH 4.5: 2

How did O=C(COC(=O)c1cnccn1)c1ccc(-c2ccccc2)cc1 do in these assays?
Rango release inh: -10%; Rango complex inh: -1.9%

What do the screens show for `COc1cc(OC)c2c(c1O)OC(c1ccccc1)CC2=O` (centres undefined)?
Rango release inh: -21%; Rango complex inh: inconclusive; miR-21 FLuc: -4%; GLA inh pH 4.5: -7

How did O=C(CSc1nc2ccccc2s1)Nc1ccc2c(c1)OCO2 do in these assays?
Rango release inh: 8%; Rango complex inh: -0.2%; miR-21 FLuc: -1%; GLA inh pH 4.5: -12

How did Nc1[nH][nH]c(=O)c1N=Nc1cccc(Cl)c1 do in these assays?
Rango release inh: 5%; Rango complex inh: 4.8%; miR-21 FLuc: -38%; GLA inh pH 4.5: -3

How did CN(Cc1ccc(-n2cccn2)cc1)C(=O)c1cnn2c1NC(c1ccco1)CC2C(F)(F)F (centres undefined) do in these assays?
Rango release inh: -11%; Rango complex inh: -4.1%; miR-21 FLuc: inconclusive; GLA inh pH 4.5: 7

Results for Cc1ccc(S(=O)(=O)N2CCN(C(=O)c3ccc(S(=O)(=O)N4CCCC4)cc3)CC2)cc1 ?
Rango release inh: 22%; Rango complex inh: -0.6%; miR-21 FLuc: -3%

What do the screens show for `CCCc1nc2oc3ccccc3c(=O)c2c(=O)n1CCCOC`?
Rango release inh: -9%; Rango complex inh: -3.4%; miR-21 FLuc: 2%; GLA inh pH 4.5: 3

How did CCOC(=O)C1CCN(Cc2cccc(Oc3ccccc3)c2)CC1 do in these assays?
Rango release inh: 22%; Rango complex inh: -0.4%; miR-21 FLuc: 8%

How did COc1ccc(CNC(=O)COC(=O)c2ccc(C(=O)c3ccccc3)cc2)cc1 do in these assays?
Rango release inh: 56%; Rango complex inh: -5.2%

How did COc1ccc(/C=C2\SC(=S)N(CCC(=O)N3CCOCC3)C2=O)cc1 do in these assays?
Rango release inh: -8%; Rango complex inh: -1.3%; miR-21 FLuc: 2%

How did COCCn1c(SCC(=O)c2cc(C)n(C)c2C)nc2ccccc2c1=O do in these assays?
Rango release inh: 9%; Rango complex inh: 2.5%; miR-21 FLuc: -26%; GLA inh pH 4.5: 6

How did O=c1nc(SCc2c(F)cccc2Cl)nc(-c2ccc(Cl)cc2)[nH]1 do in these assays?
Rango release inh: -7%; Rango complex inh: 4.5%; miR-21 FLuc: 2%; GLA inh pH 4.5: 2

What do the screens show for `Cc1ccc(S(=O)(=O)NC(=O)c2ccccc2)cc1C(C)C`?
Rango release inh: 3%; Rango complex inh: -0.1%; miR-21 FLuc: -20%; GLA inh pH 4.5: -1

How did CCN1C(=O)NC(c2ccccc2)(c2ccccc2)C1=O do in these assays?
Rango release inh: -9%; Rango complex inh: 6.8%

How did CCOc1ncccc1C(=O)OCc1cc(=O)oc2c(C)c(C)ccc12 do in these assays?
Rango release inh: -1%; Rango complex inh: -5.2%; miR-21 FLuc: -3%; GLA inh pH 4.5: -1

Results for CC(=O)N1CCc2cc(NS(=O)(=O)c3cccs3)ccc21 ?
Rango release inh: 5%; Rango complex inh: 4.0%; miR-21 FLuc: -9%; GLA inh pH 4.5: 9

What do the screens show for `CCOC(=O)c1c(C)[nH]c(C)c1C(=O)COC(=O)[C@@H](NC(=O)c1ccco1)C(C)C`?
Rango release inh: 5%; Rango complex inh: -3.0%

What do the screens show for `COc1ccc(CN(Cc2ccc(C(=O)O)cc2)C(=S)Nc2ccccc2F)cc1OC`?
Rango release inh: 2%; Rango complex inh: -0.6%; miR-21 FLuc: 5%; GLA inh pH 4.5: 3[21.1 µM]

What do the screens show for `Cc1ccc(C(=O)NCCSc2ccccc2)cc1S(=O)(=O)Nc1ccccc1`?
Rango release inh: 3%; Rango complex inh: -4.4%; miR-21 FLuc: 6%; GLA inh pH 4.5: 3

Results for O=C(COc1cccnc1[N+](=O)[O-])N1CCN(S(=O)(=O)c2ccc3ccccc3c2)CC1 ?
Rango release inh: -14%; Rango complex inh: -3.2%; miR-21 FLuc: -1%; GLA inh pH 4.5: -7

Results for COC(=O)c1ccc(-c2noc(CN(C)Cc3ccncc3C)n2)cc1 ?
Rango release inh: 1%; Rango complex inh: 5.8%; miR-21 FLuc: 4%; GLA inh pH 4.5: -2

How did O=C(NCCc1nnc2ccc(N3CCCCCC3)nn12)c1ccccc1F do in these assays?
Rango release inh: -2%; Rango complex inh: 1.7%

Results for C=CCn1c(SCC(=O)NC2CC2)nc2sc(CC)cc2c1=O ?
Rango release inh: -4%; Rango complex inh: -1.4%; miR-21 FLuc: -1%; GLA inh pH 4.5: 2

What do the screens show for `CCOC(=O)c1cnn(-c2ccccc2)c1-n1cccc1C(=O)C(=O)Nc1ccccc1`?
Rango release inh: 5%; Rango complex inh: 0.1%; miR-21 FLuc: -21%; GLA inh pH 4.5: -2

What do the screens show for `CC(C)CCOc1cccc(OCC(=O)Nc2ccncc2)c1`?
Rango release inh: 18%; Rango complex inh: -1.4%; miR-21 FLuc: 27%

What do the screens show for `CN(Cc1ccno1)C(=O)CC1C(=O)NCCN1CC(c1ccccc1)c1ccccc1` (centres undefined)?
Rango release inh: -3%; Rango complex inh: -5.0%; miR-21 FLuc: 5%; GLA inh pH 4.5: 5

What do the screens show for `NC(=O)c1cccc2c3c([nH]c12)CCCC3`?
Rango release inh: inconclusive; Rango complex inh: inconclusive; miR-21 FLuc: -34%; GLA inh pH 4.5: -2

What do the screens show for `COc1ccc(CC(=O)NCCc2ccc(OC)c(OC)c2)cc1`?
Rango release inh: 3%; Rango complex inh: 5.7%; miR-21 FLuc: 0%

What do the screens show for `O=C(N/C(=C\c1ccc(Br)cc1)C(=O)N1CCCC1)c1ccccc1F`?
Rango release inh: -2%; Rango complex inh: 0.0%; miR-21 FLuc: 0%; GLA inh pH 4.5: 5

How did Cc1ccc(NC2CCCN(C(=O)c3cccc(-c4ncc[nH]4)c3)C2)cc1C (centres undefined) do in these assays?
Rango release inh: -6%; Rango complex inh: -0.8%; miR-21 FLuc: 0%

Pulled by structure from above, 5 records:
What do the screens show for `CNC(=S)NC1CC2CCCC(C1)N2Cc1ccco1` (centres undefined)?
Rango release inh: -11%; Rango complex inh: 2.7%; miR-21 FLuc: -29%; GLA inh pH 4.5: 1

Results for O=C(COc1cccnc1[N+](=O)[O-])N1CCN(S(=O)(=O)c2ccc3ccccc3c2)CC1 ?
Rango release inh: -14%; Rango complex inh: -3.2%; miR-21 FLuc: -1%; GLA inh pH 4.5: -7

What do the screens show for `CCC1CN(C(=O)Nc2ccc(C)cc2)c2cc(C)ccc2O1` (centres undefined)?
Rango release inh: -12%; Rango complex inh: -1.3%; miR-21 FLuc: -1%; GLA inh pH 4.5: -2

How did Nc1[nH][nH]c(=O)c1N=Nc1cccc(Cl)c1 do in these assays?
Rango release inh: 5%; Rango complex inh: 4.8%; miR-21 FLuc: -38%; GLA inh pH 4.5: -3

What do the screens show for `COc1ccc(CC(=O)NCCc2ccc(OC)c(OC)c2)cc1`?
Rango release inh: 3%; Rango complex inh: 5.7%; miR-21 FLuc: 0%
